VDR inhibitor: inhibitors of human vitamin D receptor. P11473. VDR-SRC2-3 peptide fluorescence polarization, 2 h. Potency, µM, without a hit: max response, negative = inhibition, hits mostly inhibitors. hit rate 0.93% among 400,000; active means well fitted inhibition curve with a large enough effect; inconclusive means small, poorly fitted or top-dose-only effect, or another doubt; inactive means no such curve, though single readings can be large or run the other way; further: series mostly up to about 120 µM
Target sequence (P11473 whole entry, looked up): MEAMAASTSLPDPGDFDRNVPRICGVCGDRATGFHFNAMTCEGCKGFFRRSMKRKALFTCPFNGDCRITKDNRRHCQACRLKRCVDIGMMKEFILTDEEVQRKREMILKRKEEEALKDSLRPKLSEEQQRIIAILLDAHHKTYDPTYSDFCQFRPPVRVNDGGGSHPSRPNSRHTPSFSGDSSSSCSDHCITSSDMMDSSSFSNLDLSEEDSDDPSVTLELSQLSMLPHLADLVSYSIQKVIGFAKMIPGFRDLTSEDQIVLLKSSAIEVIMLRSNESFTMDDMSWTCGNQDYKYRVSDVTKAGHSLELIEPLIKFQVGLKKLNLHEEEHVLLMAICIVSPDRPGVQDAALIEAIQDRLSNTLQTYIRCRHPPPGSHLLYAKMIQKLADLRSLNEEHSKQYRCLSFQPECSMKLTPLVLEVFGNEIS
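Fluorescence polarization assay measuring small-molecule disruption of VDR binding to the coregulator peptide SRC2-3. Compounds were pin-transferred (23 nl) into the reagent mix and incubated 2 h at room temperature before reading.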
An asterisk follows results filed as active; u = inconclusive; & = joins results of further samples. On the % scale 0 is the no-effect control and ±100 the full control effect; potency means the concentration at half of the fitted maximal effect. Only part of the results is shown; count on the stated rates, not on these rows.

SMILES | VDR inhibitor
COc1cccc2cc(C(=O)Nc3cccc(C)n3)c(=O)oc12 | 10%
CCOC(=O)NC(N(O)c1cccc(Cl)c1)C(Cl)(Cl)Cl (configuration not stated) | 32µM*
Cc1ccc(S(=O)(=O)N2CCN(C(=O)c3ccccc3OCc3c(C)noc3C)CC2)cc1 | u
COc1cccc(C(=O)N(Cc2sccc2C)C2CCS(=O)(=O)C2)c1 (configuration not stated) | -1%
O=C(CSc1n[nH]c(-c2ccncc2)n1)Nc1ccccc1 | 18%
CC(C1CC2CCC1C2)n1c(-c2cccs2)n[nH]c1=S (configuration not stated) | -12%
Cc1cccc(OCC(=O)N(Cc2cccc(Cl)c2)Cc2ccco2)c1C | 10%
COc1ccc(C(=O)Nc2c(Cl)cc(Cl)cc2C(=O)NCc2ccco2)cc1 | -3%
COc1ccccc1OCCNC(=O)c1cc(F)c(F)cc1Cl | -11%
Cc1c(NC(=O)COC(=O)Cc2ccc(Br)cc2)c(=O)n(-c2ccccc2)n1C | -26%
Cc1ccc(/C=N/NC(=O)c2nnn(-c3nonc3N)c2CN(C)C2CCCCC2)cc1 | -12%
O=C(Cc1ccc(S(=O)(=O)N2CCOCC2)s1)N1CCN(c2ccc(C(F)(F)F)cc2[N+](=O)[O-])CC1 | -1%
CCOC(=O)C1=C(C)N(C)C(=S)NC1c1cccc(Cl)c1Cl (configuration not stated) | 11%
COCCNC(=S)N/N=C(\C)c1cccc([N+](=O)[O-])c1 | -12%
O=C1CN(C(=O)COC(=O)CNC(=O)c2ccc(Cl)cc2)c2ccccc2N1 | -9%
O=C(NC(=S)Nc1ccc(-c2nc3ncccc3o2)cc1)c1ccccc1F | 13%
COc1cccc(-c2cc(C(F)(F)F)nc(-n3ccc([N+](=O)[O-])n3)n2)c1 | -5%
CCOCCn1c(N2CCN(c3ccccc3)CC2)nc2c1c(=O)n(C)c(=O)n2C | 20%
O=S(=O)(CCN1CCOCC1)c1ccc(Cl)cc1 | -21%
O=C(Cn1c(-c2cccs2)cc2cc(Cl)ccc21)N1CCCCC1 | 8%

2 of the compounds above, as labelled records.
COCCNC(=S)N/N=C(\C)c1cccc([N+](=O)[O-])c1
  VDR inhibitor: -12%
O=C(NC(=S)Nc1ccc(-c2nc3ncccc3o2)cc1)c1ccccc1F
  VDR inhibitor: 13%

Further structures:
SMILES | VDR inhibitor
Cc1cccc(NC(=O)CSc2nnc3ccc(-c4ccccn4)nn23)c1 | 12%
O=C(Nc1ccc(N2C(=O)c3cccc4cccc(c34)C2=O)cc1)c1ccc(N2CCCCC2)c([N+](=O)[O-])c1 | -23%
Cc1ccccc1NC(=O)C(=O)NCCc1ccccc1 | -4%
Cn1cc(Br)c(C(=O)NNC(=O)c2ccccc2)n1 | -5%
COc1cccc(N2CCN(c3ccc(S(=O)(=O)N4CCCC4)cc3)CC2)c1 | 12%
CC1CN=C(NC(=O)c2cccc([N+](=O)[O-])c2)S1 (configuration not stated) | -1%
Cc1cc2nc(C)n(CCCNC(=O)Nc3ccc(F)cc3)c2cc1C | 17%
COc1ccc(NC2CCCN(C(=O)c3ccc(OC)cc3OC)C2)cc1 (configuration not stated) | -1%
CCOc1ccc2[nH]c3nc(SCC(=O)NC4CCCC4)nnc3c2c1 | 14%
Cc1n[nH]c(C)c1N1C(=O)c2cccc3c(Br)ccc(c23)C1=O | 15%
CC(=O)N(c1nnc(-c2ccc(C)cc2)s1)C1CCCC1 | -22%
O=C(Nc1ccc(Oc2ccc(NC(=O)Nc3ccc([N+](=O)[O-])cc3)cc2)cc1)Nc1ccc([N+](=O)[O-])cc1 | -11%
COC(=O)C1=C(C)NC(=O)/C1=C\c1ccc2c(c1)OCO2 | -4%
CCOC(=O)c1c(O)cc(OC)cc1CCc1ccccc1 | -26%
C=CCN1[C@@H](Cc2ccccc2)COCCS1(=O)=O | -5%
Cc1cc2nc3s/c(=C/c4ccc(-c5ccccc5C(=O)O)o4)c(=O)n3c2cc1C | 5%
Fc1cccc(Cl)c1CNC(c1ccccc1)c1ccccc1 | -7%
CN(C)c1ncnc2c1ncn2-c1ccccc1 | -10%
C/C(=N\NC(=O)CSc1nc2ccccc2s1)c1ccco1 | -1%
COc1ccc(C2C(C(=O)Nc3ccccc3)=C(C)Nc3nc(CCCO)nn32)cc1 (configuration not stated) | 16%

Reprinted from above for reference:
SMILES | VDR inhibitor
O=C(Cn1c(-c2cccs2)cc2cc(Cl)ccc21)N1CCCCC1 | 8%
Cc1cccc(NC(=O)CSc2nnc3ccc(-c4ccccn4)nn23)c1 | 12%
O=C(Nc1ccc(N2C(=O)c3cccc4cccc(c34)C2=O)cc1)c1ccc(N2CCCCC2)c([N+](=O)[O-])c1 | -23%
Cc1ccccc1NC(=O)C(=O)NCCc1ccccc1 | -4%
Cn1cc(Br)c(C(=O)NNC(=O)c2ccccc2)n1 | -5%
COc1cccc(N2CCN(c3ccc(S(=O)(=O)N4CCCC4)cc3)CC2)c1 | 12%
CC1CN=C(NC(=O)c2cccc([N+](=O)[O-])c2)S1 (configuration not stated) | -1%
Cc1cc2nc(C)n(CCCNC(=O)Nc3ccc(F)cc3)c2cc1C | 17%
COc1ccc(NC2CCCN(C(=O)c3ccc(OC)cc3OC)C2)cc1 (configuration not stated) | -1%
CCOc1ccc2[nH]c3nc(SCC(=O)NC4CCCC4)nnc3c2c1 | 14%
Cc1n[nH]c(C)c1N1C(=O)c2cccc3c(Br)ccc(c23)C1=O | 15%
CC(=O)N(c1nnc(-c2ccc(C)cc2)s1)C1CCCC1 | -22%
O=C(Nc1ccc(Oc2ccc(NC(=O)Nc3ccc([N+](=O)[O-])cc3)cc2)cc1)Nc1ccc([N+](=O)[O-])cc1 | -11%
COC(=O)C1=C(C)NC(=O)/C1=C\c1ccc2c(c1)OCO2 | -4%
CCOC(=O)c1c(O)cc(OC)cc1CCc1ccccc1 | -26%
C=CCN1[C@@H](Cc2ccccc2)COCCS1(=O)=O | -5%
Cc1cc2nc3s/c(=C/c4ccc(-c5ccccc5C(=O)O)o4)c(=O)n3c2cc1C | 5%
Fc1cccc(Cl)c1CNC(c1ccccc1)c1ccccc1 | -7%
CN(C)c1ncnc2c1ncn2-c1ccccc1 | -10%
C/C(=N\NC(=O)CSc1nc2ccccc2s1)c1ccco1 | -1%
COc1ccc(C2C(C(=O)Nc3ccccc3)=C(C)Nc3nc(CCCO)nn32)cc1 (configuration not stated) | 16%

Later entries
SMILES | VDR inhibitor
CCCNc1nc2c(c(=O)[nH]c(=O)n2C)n1CCOc1ccccc1 | -17%
CCCCCn1nc(C)c(/C=N\NC(=O)c2cc(C)oc2C)c1C | -7%
Cc1ccc(-c2ccc(SCC(=O)NC3CCCCC3)nn2)cc1 | -9%
Cc1ccc(NS(=O)(=O)c2ccc3nc(-c4ccccc4)[nH]c3c2)cc1Cl | -13%
CCCc1sc(N)nc1-c1ccc(Cl)cc1 | -6%
CCOC(=O)C1(C(F)(F)F)N=C(c2ccccc2F)OC(N(C)C)=N1 (configuration not stated) | 4%
CCOc1ccc(NC(=O)N2CCN(S(C)(=O)=O)CC2)cc1 | 18%
O=S(=O)(c1ccc(C2CCCCC2)cc1)N1CCN(c2cc(Cl)ccc2Cl)CC1 | -23%
Cc1ccccc1-c1nc(CS(=O)CC(=O)NC2CCCCC2)c(C)o1 (configuration not stated) | -4%
NC(=O)c1cc(-c2ccccc2)nc(N2CCCCCC2)n1 | -12%
CCCCC[C@H]1CN(C2CCCCC2)C(=O)[C@@H]1CC(=O)NCc1ccccc1 | -2%
O=C(O)CCSc1nc2ccccc2n1Cc1ccccc1 | -15%
O=C1CC(c2ccc(F)cc2)c2c(c3ccccc3[nH]c2=O)O1 (configuration not stated) | -12%
O=C(O)C/C(=C\c1cccc(NC(=O)c2ccccc2Cl)c1)c1nc2ccccc2s1 | -26%
CC(C)(C)c1ccc(C(=O)N/N=C/c2cccc(Cl)c2)cc1 | 8%
N/C(=N\c1nc2ccccc2o1)NC(=O)c1ccc(F)cc1 | 6%
O=C(c1c(F)c(F)c(F)c(F)c1F)N1CCN(Cc2ccc3c(c2)OCO3)CC1 | -16%
CCN(c1cccc(C)c1)S(=O)(=O)c1cc(CN2C(=O)c3cccnc3C2=O)ccc1OC | 2%
COC(=O)c1ccccc1NC(=O)CCCn1nc(C)c2c(C)n(-c3ccccc3)nc2c1=O | 18%&5%
COCCCNC(=O)c1ccc(-n2c(-c3ccccc3)cc3c2CCC(C)C3)cc1 (configuration not stated) | 5%
Cc1cccc(NC(=O)c2cccc(N3C(=O)C4C5C=CC(C6CC56)C4C3=O)c2)c1 (configuration not stated) | -7%
Cc1c(C(=O)N2CCC2)oc2ccc(Br)cc12 | -6%
Cn1c2ccccc2c(=O)c2ccc(C#CC3(O)CCCCC3)cc21 | -13%
O=C(O)C(Cc1ccc(O)cc1)N1C(=O)C2CCCCC2C1=O (configuration not stated) | 13%
Cc1ccccc1C(=O)NC1(C(F)(F)F)N=C(c2ccccc2)N(C2CCCCC2)C1=O (configuration not stated) | -6%
CCc1ccc2c(c1)NC(c1cccnc1)=NC(c1ccc(C(C)(C)C)cc1)=N2 | 6%
O=C(CSc1nnc(CNC(=O)c2ccccc2)o1)NCC1CCCO1 (configuration not stated) | -9%
O=S(=O)(Nc1nc(-c2ccccc2)cs1)c1cccc(C(F)(F)F)c1 | -14%
COCc1ccc(C(=O)Nc2cccc(S(=O)(=O)N(C)c3ccccc3)c2)cc1 | 14%
Cc1oc2ccccc2c1CNC(=O)N(C)C | -4%
COCCNC(=O)c1ccc2snnc2c1 | -9%
COc1ccc(NC(C)=O)cc1S(=O)(=O)N(C)Cc1c(C)nn(-c2ccccc2)c1C | 21%
CCN(CC)CCCNC(=O)c1ccc2c(=O)n(CCc3ccccc3)c(=O)[nH]c2c1 | -16%
CCCOP(=O)(c1ccc(N(C)C)cc1)C(Nc1ccccc1)c1ccc(N(C)C)cc1 (configuration not stated) | -15%
CCOC(=O)C(NC(=O)c1ccccc1)(OCc1ccc(F)cc1)C(F)(F)F (configuration not stated) | 5%
Cc1ccc2c(c1)C1CC(C)(O2)N(c2cccc(C(=O)N3CCN(c4ccccn4)CC3)c2)C(=O)N1 (configuration not stated) | -5%
C/C(CC(=O)Nc1ccc(N(C)C)cc1)=N\NC(=O)c1ccc([N+](=O)[O-])cc1 | 1%
O=S(=O)(c1ccc(-c2cnc(C3CC3)o2)cc1)N1CCN(c2cccc(Cl)c2)CC1 | 3%
Cc1cccc(C(=O)NC2CCN(CC(=O)N3CCOCC3)CC2)c1 | 1%
COc1ccc(C=CC(=O)c2c(OC)cc(OC)c(OC)c2O)cc1 | u
CC(=O)NC(CCS(C)(=O)=O)C(=O)Nc1cccc2ccccc12 (configuration not stated) | 1%
Cc1ccc(C(=O)Nc2ccnc(-c3ccncc3)n2)cc1 | 12%
C=C(C)c1nc2cc(OC)c(OC)cc2c(=O)o1 | -3%
Cc1ccc(S(=O)(=O)Nc2cc3c(cc2C)n(C)c(=O)c(=O)n3C)cc1 | 12%
CC(C)(C)OC(=O)N1CCCN(C(=O)Nc2cccc(Cl)c2)CC1 | -11%
COc1ccc(OC)c(NC(=O)c2cccn2-c2nnc(N3CCCCC3)s2)c1 | 19%
O=C(N/N=C/c1ccoc1)c1ccccc1O | -14%
C=CCn1c(SCC(=O)NC2CCS(=O)(=O)C2)nnc1-c1ccc(Cl)cc1 (configuration not stated) | -4%
CC(C)(C)NC(=O)C[C@H]1C[C@H](C(=O)N2CCOCC2)[C@@]2(CCC3CCCC3)c3[nH]c4ccc(Cl)cc4c3CCN2C1=O | -2%
CC(C)(C)OC(=O)C[C@@H]1C/C=C\C[C@@H](CC(=O)N(CCO)Cc2ccccc2)C(=O)N[C@H](Cc2c[nH]c3ccccc23)COC1=O | -13%
COc1ccccc1Nc1nc2c(S(=O)(=O)c3ccc(C(C)C)cc3)nnn2c2ccsc12 | -7%
CC(C)Nc1nc(NC(C)C)nc(Oc2ccc(/C=N/O)cc2)n1 | 3%
CCCCCOc1ccccc1C(=O)NCCCC(=O)O | 21%
O=c1nc2ccccc2c2n1CC(CN1CCN(c3cccc(Cl)c3)CC1)N2 (configuration not stated) | -4%
Cc1ccc(C(=O)c2cn(Cc3cccc(Cl)c3)c3nc(C)ccc3c2=O)cc1 | -4%
O=CN/C=C/c1cccc(O)c1 | -11%
Cc1cccc(N2CC(C(=O)Nc3nccs3)CC2=O)c1C (configuration not stated) | 0%
COC(=O)C1=C(C)NC(C)=C(C(=O)OCCN(C)Cc2ccccc2)C1c1cccc([N+](=O)[O-])c1 (configuration not stated) | u
CCc1cccc(NC(=O)CN2C(=O)COc3ccc(S(=O)(=O)Nc4ccccc4)cc32)c1 | 7%
Cc1ccc(-c2nnc(-c3ccccc3Br)o2)cc1 | 2%

Other entries:
SMILES | VDR inhibitor
O=C(CC1CCCCC1)Nc1ncn[nH]1 | 6%
Cc1ccc(S(=O)(=O)NCC(=O)N(CC(=O)NCc2ccccc2)CC2CCCO2)cc1 (configuration not stated) | 13%
CCCCNC(=O)n1c(=O)oc2ccc(Cl)cc21 | -1%
COCc1nnc(NC(=O)CCc2ccc(OC)cc2)s1 | -4%
CCOC(=O)c1sc(NC(=O)CSc2nnc(Cc3ccccc3)o2)c(C(=O)OCC)c1C | 5%
Cn1c2ccccc2c2nnc(SCC(=O)Nc3cccc(C(=O)O)c3)nc21 | u
Cn1cccc/c1=N\c1cccc[n+]1C | -8%
COC(=O)c1cccc(C(=O)N2CCC(CCC(=O)NCc3ccc(F)cc3)CC2)c1 | 15%
O=C(CSc1nnc2ccc(-c3ccncc3)nn12)N1CCCCC1 | -12%
COc1cccc(CNC(=O)c2ccc(NC(=O)N3CCCCc4ccccc43)cc2)c1 | -2%
COc1cc(/C=C/C(=O)O)ccc1OCc1cnc(Cl)s1 | 5%
O=C(CNC(=O)c1ccncc1)N/N=C/c1ccccn1 | 4%
CCCN1CNc2c(c(=O)[nH]c(=S)n2CCc2ccc(C)c(C)c2)C1 | u
O=C(O)c1ccccc1Cc1ccc2c(c1)CCCC2 | 9%
CCOC(=O)C1C(=O)NC(c2ccccc2)=NC1c1ccc(OC)cc1 (configuration not stated) | 2%
C[C@]12C=CC(=O)C=C1CC[C@@H]1C2[C@@H](O)C[C@@]2(C)C1CC[C@]2(O)C(=O)COC(=O)CCC(=O)O (some centres not stated) | -21%
